RanGTP-Impb inh = inhibitors of RanGTP-importin-beta interaction, primary screen, biochemical, FRET, CFP-Ran, YFP-importin-beta, homogeneous | cell-free CFP-Ran/YFP-importin-beta FRET ratio | 300,000 tested, 1.1% active | inhibition, % (concentration not given with the values) | AID 2216;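 active means most replicates above 15%; inconclusive means exactly half above 15%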;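 further: 0% = DMSO wells and 100% = Ran loaded with GDP instead of GTP; wells of about 40 µL received 100 nL stock; the first replicate is given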
Vif TR-FRET = HIV-1 Vif–A3G interaction blockers – biochemical, TR-FRET, GST-Vif 1-94, biotin-A3G peptide, dose response retest, primary screen (AID 1117319) | inhibition, %; hits with a dose series show IC50 in µM | TR-FRET GST-Vif / biotin-A3G peptide binding; higher % means a stronger effect; test concentration not given here; strong numbers were not always called active | 260,000 tested, 0.57% active;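 active means above the screen mean plus three standard deviations and confirmed in dose response; inconclusive means results disagree or hit not tested in dose response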;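 further: Vif residues 1-94 fused to GST binding biotinylated APOBEC3G peptide 110-148; 0% = full assay without inhibitor and 100% = GST in place of GST-Vif; retest series ran down from 100 µM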
AF4-AF9 inh = inhibitors of human MLL-AF4/AF9 interaction. P42568. AlphaScreen, biotin-AF4 peptide binding to FLAG-AF9. inhibition, % at 10 µM. 350,000 tested, 0.47% active. AID 651704;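 active means every replicate reaching a set inhibition limit, whatever the replicate mean, cut at about 25% in these data; inconclusive means mean inhibition reaches that limit but some replicates miss it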;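 further: 0% = plate neutral control median and 100% = total signal loss; the record names both 10 and 1 µM as test concentration; the first replicate is given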
Calb FLC = C. albicans growth modulation with fluconazole; C. albicans CaCi-2 (fluconazole-resistant clinical isolate) + fluconazole, Alamar Blue growth, 48 h; growth inhibition, % (test concentration not listed); 300,000 tested, 0.57% active;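 active means most replicates above 75%; inconclusive means exactly half above 75%; inactive means most below 75%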;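 further: all wells also contain fluconazole at 8 µg/ml as a sub-toxic cotreatment; 0% = median of DMSO wells and 100% = median of geldanamycin control wells; wells of about 8 µL received 7.5 nL stock; the first replicate is given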
LANA-H2B inh = blocks KSHV LANA binding to histone H2A/H2B; AID 2629; inhibition, % (no concentration beside the values); Q9QR71; cell-free LANA-H2A/H2B peptide, fluorescence polarization; 320,000 tested, 0.6% active; in the data active means inhibition mostly above about 10%, no sharp cut-off; inactive means mostly below about 6.7%;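 further: stock transfer was 7.5 nL into about 10 µL; 0% = median of vehicle wells and 100% = median of positive control wells; one replicate is shown; the record names a cut of 25% in any replicate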
Target sequence (Q9QR71 whole entry, looked up): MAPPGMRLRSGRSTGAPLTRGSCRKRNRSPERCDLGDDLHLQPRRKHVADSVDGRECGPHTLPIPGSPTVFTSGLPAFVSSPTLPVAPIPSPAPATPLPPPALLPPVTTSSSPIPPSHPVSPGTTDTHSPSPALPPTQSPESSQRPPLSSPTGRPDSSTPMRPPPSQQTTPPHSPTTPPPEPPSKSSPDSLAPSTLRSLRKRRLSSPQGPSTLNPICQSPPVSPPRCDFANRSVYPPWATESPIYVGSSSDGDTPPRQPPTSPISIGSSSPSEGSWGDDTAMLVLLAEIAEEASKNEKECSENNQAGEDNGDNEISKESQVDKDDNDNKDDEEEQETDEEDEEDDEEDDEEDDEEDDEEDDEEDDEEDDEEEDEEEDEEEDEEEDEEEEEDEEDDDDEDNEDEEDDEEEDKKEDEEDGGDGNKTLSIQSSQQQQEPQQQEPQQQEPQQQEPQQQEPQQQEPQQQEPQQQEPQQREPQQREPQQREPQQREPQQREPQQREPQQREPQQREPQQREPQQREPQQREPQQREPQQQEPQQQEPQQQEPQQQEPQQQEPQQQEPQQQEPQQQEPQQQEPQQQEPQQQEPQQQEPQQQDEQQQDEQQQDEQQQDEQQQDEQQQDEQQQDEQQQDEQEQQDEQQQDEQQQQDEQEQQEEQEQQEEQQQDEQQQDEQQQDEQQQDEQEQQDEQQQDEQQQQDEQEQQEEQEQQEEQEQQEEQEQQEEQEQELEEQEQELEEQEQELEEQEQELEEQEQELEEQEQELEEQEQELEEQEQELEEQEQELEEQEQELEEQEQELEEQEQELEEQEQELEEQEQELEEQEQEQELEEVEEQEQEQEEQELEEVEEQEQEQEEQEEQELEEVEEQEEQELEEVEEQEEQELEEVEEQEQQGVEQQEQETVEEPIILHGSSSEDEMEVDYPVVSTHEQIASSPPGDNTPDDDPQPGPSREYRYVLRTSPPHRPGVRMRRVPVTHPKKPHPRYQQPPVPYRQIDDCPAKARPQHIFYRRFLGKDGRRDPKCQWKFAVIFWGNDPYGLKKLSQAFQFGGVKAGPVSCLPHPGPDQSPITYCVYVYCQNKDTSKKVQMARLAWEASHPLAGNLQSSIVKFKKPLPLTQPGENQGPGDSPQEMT
T cruzi repl = T. cruzi replication inhibition | T. cruzi beta-gal in NIH3T3, luminescence, 90 h | inhibition, % (test concentration not listed) | 300,000 tested, 1.4% active;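 active means mean inhibition across valid replicates above about 55%, limit read from the data; inconclusive means mean below that limit but half or more replicates reach it; inactive means mean below it, under half of replicates reach it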;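 further: signal also drops with host cell toxicity which is not excluded here; 0% = plate median of DMSO wells and 100% = zero luminescence signal; higher percent means less beta-gal luminescence so fewer parasites; stock transfer was 50 nL into about 50 µL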
Beta apoptosis = blocks beta cell apoptosis; INS-1E cytokine-induced death, ATP luminescence, 48 h; percent of positive-control rescue, neutral wells zero; 300,000 tested, 0.8% active; protection from apoptosis, % (concentration not given with the values); AID 435005;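 active means all replicates at 75% or more, or half of them and the mean; inconclusive means half reach 75% but not the mean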;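 further: 0% = cytokine-treated negative control wells and 100% = positive control rescue; higher means more ATP so stronger rescue from cytokine killing; wells of about 40 µL received 100 nL stock; the first replicate is given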
Bfl-1 A1 inh = inhibitors of the anti-apoptotic protein A1, read as caspase activation | caspase activation, % (no concentration beside the values) | AID 2462 | 330,000 tested, 0.066% active | MEF A1-2A-BIM cells, Caspase-Glo 3/7 luminescence, 3 h; percent of clofoctol response, vehicle zero;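 active means over half of replicate activation scores above 10%, or exactly half above 10 with the replicate mean above 10; inconclusive means replicate mean below 10 yet half the replicates above 10; inactive means over half of replicates below 10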;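 further: wells of about 30 µL received 50 nL stock; many hits fall short of the cut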
* hit, by the source's call; ? = inconclusive; · = no result given.

entry	Molecule	RanGTP-Impb inh	Vif TR-FRET	AF4-AF9 inh	Calb FLC	LANA-H2B inh	T cruzi repl	Beta apoptosis	Bfl-1 A1 inh
1	CCNC(=S)Nc1ccc(C)c(S(=O)(=O)Nc2ccccc2OC)c1	2.2	·	1.9	4	-5.4	-10	2	0.0
2	Cc1ccc(-n2c(-c3cccnc3)n[nH]c2=S)c(C)c1	0.2	3%	·	40	-3.5	-2	4	-0.4
3	CC(C)c1ccc(C2C(C#N)=C(N)N3C(=C2C#N)Sc2ccccc23)cc1 (stereo not drawn)	8.7	-16%	·	-8	-4.5	4	4	1.4
4	CN(c1cccc(NC(=O)CN(c2ccc(F)cc2)S(C)(=O)=O)c1)S(C)(=O)=O	-2.4	·	-0.3	0	-3.0	-8	-7	0.2
5	CC(C)[C@H](N)c1nnc(SCC(=O)c2ccc(Cl)cc2)o1	?	9%	·	15	-3.2	-7	-5	0.5
6	COc1cccc(N2CC(NC(=O)c3ccc4ccccc4c3)CC2=O)c1 (stereo not drawn)	-1.1	2%	-1.7	17	0.6	-5	-9	?
7	COc1ccc(-n2nnc3c(SCC(=O)Nc4ccccc4F)ncnc32)cc1	-1.0	-8%	1.0	-4	1.7	-6	3	-4.9
8	CCCS(=O)(=O)c1nc(S(=O)(=O)c2ccc(C)cc2)c(N2CCc3ccccc3C2)s1	0.3	·	1.7	10	7.7	14	0	1.8
9	CCCCSc1nc2sc3c(c2c(=O)n1-c1ccc(OC)cc1)CCN(C)C3	-19	·	5.9	28	·	49	·	·
10	O=C(NCCc1ccccc1)c1n[nH]c2ccccc12	1.4	-13%	-1.1	-15	5.7	12	2	-1.2
11	CCSc1nnnn1-c1ccccc1	-0.3	-3%	·	?	8.5	3	-4	0.0
12	COc1cccc(CN2CC(O)=C(c3nc(-c4ccc(Cl)cc4)cs3)C2=N)c1	-3.7	-16%	·	-14	3.4	8	-1	0.4
13	Brc1cccc(-c2cnco2)c1	-2.7	-8%	-1.8	10	-0.7	-9	-4	0.6
14	COc1ccc(CCNC(=O)COC(=O)CCC(=O)c2cccs2)cc1OC	·	-2%	0.6	·	-0.3	·	-2	-0.7
15	COc1ccc(C(C#N)(CC(=O)O)c2cnccn2)cc1OC (stereo not drawn)	5.7	·	-0.9	4	-1.6	-14	-5	2.7
16	Cc1ccc2nc(S(=O)(=O)O)[nH]c2c1	2.8	15%	·	0	-0.9	4	4	?
17	N#Cc1c(N)c(C(=O)c2ccc(Br)cc2)n2c1CCC2	1.3	-1%	·	12	-1.7	6	4	-0.3
18	O=C(CSCc1c(Cl)cccc1Cl)NN1C(=O)c2ccccc2C1=O	1.2	2%	·	-4	-2.7	1	-5	0.4
19	CC1(C(=O)c2ccccc2)C2c3c(ccc4ccccc34)OC(=O)C21C(=O)N1CCOCC1 (stereo not drawn)	1.8	-10%	·	-1	-0.5	-7	-8	0.1
20	COc1cccc(CN(C)C(=O)c2ccc(NS(=O)(=O)c3ccc(F)cc3)cc2)c1OC	3.5	6%	-6.6	-1	0.8	-5	·	-0.2
21	O=C(Nc1ccc2nc(-c3ccco3)c(-c3ccco3)nc2c1)N1CCN(c2ccccn2)CC1	33*	?	·	7	·	-7	-5	-0.2
22	CCOc1ccc(C(=O)NCCC(=O)N2CCC3(CC2)NCCc2[nH]cnc23)cc1OCC	-2.2	·	0.0	-14	-0.3	2	-3	-0.1
23	COc1ccc(N(C)S(=O)(=O)c2cccc(C(=O)OC(C(=O)Nc3cc(C)cc(C)c3)c3ccccc3)c2)cc1 (stereo not drawn)	1.2	15%	12	-9	0.9	7	-1	0.3
24	CCCCNC(=O)c1c[nH]c2ccc(S(=O)(=O)Nc3ccc(OCC)cc3)cc2c1=O	?	15%	·	-1	-3.4	-9	1	-0.3
25	CCC(=O)Nc1nnc(SCC(=O)c2ccc3c(c2)Cc2ccccc2-3)s1	-0.1	3%	7.6	-8	-0.8	-5	·	0.7
26	COC(=O)c1cn(-c2ccccc2)nc1C(=O)OC	2.9	2%	·	-5	-4.1	-11	0	-0.3
27	N#CC1=C(N)Oc2cc(Nc3ccccc3)ccc2C1c1ccncc1 (stereo not drawn)	-15	4%	·	17	-0.9	45	-8	0.1
28	COC(=O)c1sc(NC(=O)c2ccc(OC)cc2OC)nc1C	-3.5	-18%	·	0	2.2	11	27	·
29	COc1ccccc1CNC(=O)c1ccc(CS(=O)Cc2cccc(Cl)c2)o1 (stereo not drawn)	0.8	0%	3.7	-13	-1.4	-1	-5	0.3
30	CSCCC(NC(=O)c1cc([N+](=O)[O-])cc([N+](=O)[O-])c1)c1nc2ccccc2[nH]1 (stereo not drawn)	-2.5	·	·	-2	-0.5	41	-3	0.3
31	O=C1c2ccccc2C(=O)N1CCCc1nc2ccccc2c(=O)n1-c1cccnc1	-0.7	3%	·	4	0.7	-8	-1	0.3
32	Cc1nnc(NC(=O)CSc2nc3c(c(=O)n(C)c(=O)n3C)n2C(C)C)s1	-0.4	-2%	-1.9	-3	-22	7	-8	0.3
33	Cc1ccc(-n2nnnc2SCC(=O)c2cc(C)n(-c3cc(C)on3)c2C)c(C)c1	?	5%	12	0	-1.2	12	-6	-0.2
34	O=C1NCCn2nc3ccccc3c21	·	·	-5.2	·	2.0	·	-5	0.2
35	CCn1cnc2c1c(=O)n(CC(=O)O)c(=O)n2Cc1ccccc1	2.8	·	-0.1	-3	5.2	-15	-2	-0.3
36	CC(=O)Nc1ccc(NC(=O)CSc2cn(CC(=O)N3CCOCC3)c3ccccc23)cc1	-2.6	·	0.1	13	6.2	-17	-3	0.2
37	COc1ccc(NC(=O)CC(c2ccco2)C(C)C)cc1 (stereo not drawn)	?	-3%	1.0	-7	-0.6	4	3	1.8
38	CCN1CCCC1CNC(=O)C1CCN(C(=O)c2cc3sccc3n2Cc2ccc(F)cc2)CC1 (stereo not drawn)	-1.4	26%	13	-10	-2.2	31	-9	-0.1
39	CCCCCCN1C2=NCCCN2c2ccccc21	9.0	-6%	3.8	-11	0.9	13	15	-0.4
40	O=c1oc2ccccc2cc1-c1csc(Cc2nc(-c3ccc(Br)cc3)cs2)n1	-0.3	?	·	3	-13	-14	1	0.2
41	O=C(NCc1ccccc1)c1cccc(COc2cccc(Cl)c2)c1	1.8	2%	·	4	-0.6	21	8	0.8
42	Cc1ccc(Nc2cc(C)nc(-c3ccccc3O)n2)cc1	-1.8	-15%	·	22	-0.7	30	10	2.0
43	CC1CC(C)CN(C(=O)CCC(=O)Nc2nnc(C3CCCCC3)s2)C1 (stereo not drawn)	2.5	11%	1.1	14	3.5	4	-9	-0.1
44	COCC(C)N=C1NN=C(c2ccc(NC(C)=O)cc2)CS1 (stereo not drawn)	-2.0	3%	-5.9	26	4.9	-1	-5	0.7
45	CCOc1ccc(NC(=O)CN(C)C(=O)c2c(C)nn(-c3ccc(F)cc3)c2Cl)cc1OCC	?	-6%	1.2	7	0.4	1	0	-0.8
46	Cc1cccc(N(Cc2cc3ccc(C)cc3[nH]c2=O)C(=O)c2ccco2)c1	-3.0	·	-3.8	-3	1.3	-1	0	0.0
47	CCOCCc1nn2c(=O)cc(CSCC(=O)Nc3cccc(C)c3C)nc2s1	1.2	·	0.4	12	3.1	-2	-2	0.9
48	COc1ccc(Cl)cc1N(CC(=O)Nc1ccc2c(c1)OCCO2)S(C)(=O)=O	-5.6	71%	·	5	-2.3	-3	2	0.0
49	Cc1nn(-c2ccc(F)cc2)c(C)c1CN1CCN(CCC(C)C)C(CCO)C1 (stereo not drawn)	3.5	0%	1.5	5	4.1	11	-1	0.7
50	COc1ccc(-c2nnn(CC(=O)Nc3sc4c(c3C#N)CCCC4)n2)cc1	-1.4	-7%	·	34	1.0	2	3	-0.2

Sorted by the number under Vif TR-FRET (lowest first): four of the compounds above
| No. | SMILES | Vif TR-FRET |
| --- | --- | --- |
| 50 | COc1ccc(-c2nnn(CC(=O)Nc3sc4c(c3C#N)CCCC4)n2)cc1 | -7% |
| 45 | CCOc1ccc(NC(=O)CN(C)C(=O)c2c(C)nn(-c3ccc(F)cc3)c2Cl)cc1OCC | -6% |
| 44 | COCC(C)N=C1NN=C(c2ccc(NC(C)=O)cc2)CS1 (stereo not drawn) | 3% |
| 43 | CC1CC(C)CN(C(=O)CCC(=O)Nc2nnc(C3CCCCC3)s2)C1 (stereo not drawn) | 11% |

The list goes on:
entry	Molecule	RanGTP-Impb inh	Vif TR-FRET	AF4-AF9 inh	Calb FLC	LANA-H2B inh	T cruzi repl	Beta apoptosis	Bfl-1 A1 inh
51	Cc1cc(C)cc(OCC(=O)N/N=C/c2ccccn2)c1	-3.8	-3%	2.4	-9	7.7	-11	-8	0.4
52	COc1ccc(C)c2sc(NNC(=O)COc3ccccc3)nc12	1.8	-21%	·	-13	1.1	-16	3	0.2
53	Cn1c(=O)cc(OCCCC(=O)Nc2ccc3c(c2)OCCO3)c2ccccc21	1.0	3%	·	0	4.7	24	-1	1.0
54	CC(=O)Nc1cccc(C(=O)OCC(=O)NC(=O)Cc2ccccc2)c1	·	·	-3.0	-4	-5.1	2	-1	0.1
55	Fc1cccc(Nc2nc(N3CCOCC3)nc(N3CCOCC3)n2)c1	-1.3	23%	2.1	-4	9.4	36	·	0.5
56	CCOC(=O)C1CCCN(C(=O)c2ccc(C)c(NC(=O)C3=C(C)OCCS3)c2)C1 (stereo not drawn)	-1.6	·	-4.8	-16	-2.8	-16	-2	0.2
57	O=C(NCc1ccccn1)C1CCN(S(=O)(=O)N2CCCCC2)CC1	-0.5	1%	·	-13	5.7	-16	4	0.6
58	N#CC1(NC(=O)COC(=O)c2nccnc2N)CCCCC1	?	-1%	2.4	-4	3.6	-3	-5	0.7
59	CC(=O)Nc1ccc(S(=O)(=O)N2CCN(C(=O)c3ncoc3-c3ccccc3F)CC2)cc1	5.1	·	-2.9	-5	-3.8	6	10	-0.9
60	CCN1/C(=C2\OC(=S)N(C)C2=O)Sc2ccccc21	-4.1	6%	·	-4	0.1	-12	3	-3.1
61	Cc1ccc(Cl)cc1N1CCN(S(C)(=O)=O)CC1	5.4	21%	-30	-2	-1.4	-3	0	-0.7
62	COC(=O)C1CCN(C(=O)CN2C(=O)NC(CC(C)C)C2=O)CC1 (stereo not drawn)	·	·	-0.7	·	-2.2	·	2	0.0
63	CCC(C(=O)NCCCN1CC(C)CC(C)C1)n1nc(C)c2sc3ccccc3c2c1=O (stereo not drawn)	3.3	·	-6.4	-6	-0.1	-9	-3	0.4
64	COc1ccc(C(=O)OCCc2ccc(O)cc2)cc1	2.2	6%	0.3	0	3.2	-2	5	-3.1
65	CCOC(=O)c1sc2nc(SCC(=O)N(CC)CC)n(CCCN3CCCC3=O)c(=O)c2c1C	2.1	0%	-0.9	10	1.3	40	15	0.1

Limited to RanGTP-Impb inh, LANA-H2B inh and T cruzi repl, for some of the entries so far:
no.	SMILES	RanGTP-Impb inh	LANA-H2B inh	T cruzi repl
62	COC(=O)C1CCN(C(=O)CN2C(=O)NC(CC(C)C)C2=O)CC1 (stereo not drawn)	·	-2.2	·
63	CCC(C(=O)NCCCN1CC(C)CC(C)C1)n1nc(C)c2sc3ccccc3c2c1=O (stereo not drawn)	3.3	-0.1	-9

High-throughput results from PubChem BioAssay.
